Compound activity as filed in PubChem.
PABP FP inh = blocks human PABP binding to poly(A) RNA; P11940; fluorescence polarization; inhibition, % at 35 µM; hit rate 1% among 290,000; AID 2014;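 active = 50% or more with normal probe brightness, or confirmed in later tests; inconclusive = above 50% with abnormal brightness, or retests that disagree; inactive = below 50% or failed in later tests; about a fifth of its hits are not listed in these tables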;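 note: calls also rest on retests at 20 µM and on dose response follow-up; controls were probe without protein and protein plus probe with vehicle; some compounds called inactive have numbers as strong as hits; many hits fall short of the cut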
CSC inhib = blocks cancer stem cells | AID 2717 | hit rate 1.1% among 300,000 | cancer stem cell-like cells viability, luminescence | inhibition, % at 7.5 µM;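 active = mean at 75% or more and at least half the replicates too; inconclusive = mean and replicates disagree; tested in HMLE shEcad cells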;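 note: 0% = median of negative and 100% = median of positive control wells; the first replicate is given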
MT1-MMP act inh = blocks activation of human MT1-MMP; GFP/RFP ratio change, % at 20 µM; P50281; HT1080 RFP-PRO-GFP cells, GFP/RFP ratio fluorescence, overnight; percent of plate control window, DMSO zero; hit rate 0.061% among 360,000;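 active = GFP/RFP ratio change of at least 30% with cell ATP level not reduced by more than half and red fluorescence within 50% of control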; note: strong numbers were not always called active
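system = RFP-PRO-GFP reporter HT1080 cells | dosing = 20 µM single dose, 1% DMSO | timing = overnight cell settling, then overnight compound exposure, 37 °C, 5% CO2 | read-out basis = GFP/RFP fluorescence ratio | controls = DMSO and RFP-L50D-GFP cell wells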
eIF4H inh = inhibitors of RNA binding by human eIF4H; Q15056; eIF4H fluorescence polarization binding assay; inhibition, % at 35 µM; hit rate 0.94% among 290,000; AID 2012;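 active = 50% or more with normal probe brightness, or confirmed in later tests; inconclusive = above 50% with abnormal brightness, or retests that disagree; inactive = below 50% or failed in later tests; about a fifth of its hits are not listed in these tables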;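 note: calls also rest on retests at 20 µM and on dose response follow-up; 0% = protein and probe with vehicle and 100% = probe without protein; strong numbers were not always called active; many hits fall short of the cut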
Rce1 inhib = yeast Ras-converting enzyme inhibition; yeast membranes, quenched prenylated peptide cleavage fluorescence; calls only; hit rate 0.27% among 290,000; Q03530;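 active = fall in fluorescence gain of 50% or more versus controls, with final raw signal at or below 3038400; inconclusive = same 50% fall but final raw signal above 3038400; inactive = fall in fluorescence gain under 50%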;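 note: plate controls were neutral control wells for no effect and wells lacking membranes for full effect; tested at 10 µM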
Target sequence (Q03530 whole entry, looked up): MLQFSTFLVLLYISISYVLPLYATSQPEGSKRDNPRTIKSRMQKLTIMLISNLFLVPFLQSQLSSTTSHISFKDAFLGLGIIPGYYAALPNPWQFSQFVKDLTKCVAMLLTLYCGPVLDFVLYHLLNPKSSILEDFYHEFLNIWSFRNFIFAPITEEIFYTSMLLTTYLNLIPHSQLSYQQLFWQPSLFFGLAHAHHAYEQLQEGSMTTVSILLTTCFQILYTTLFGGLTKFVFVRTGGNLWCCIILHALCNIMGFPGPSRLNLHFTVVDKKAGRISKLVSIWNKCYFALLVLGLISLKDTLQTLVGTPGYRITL
UUG fidelity = yeast start codon fidelity modulation. S. cerevisiae UUG-firefly luciferase reporter, luminescence/redox ratio. activity score, % at 18.7 µM. hit rate 0.13% among 350,000;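 active = replicate mean at a twofold rise or more, about +100% in these data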;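 note: firefly luciferase made from a UUG start codon reports start codon fidelity; reporter light over untreated wells divided by growth signal over untreated wells; some hits fall short of that in this replicate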
Env fusion inh = blocks HIV Env-driven cell-cell fusion; hit rate 1.1% among 360,000; HeLa-JRFL Env/CEM21 cell fusion, luciferase; AID 651610; inhibition, % at 12.3 µM;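 active = mean replicate inhibition score of at least 50 and every replicate individually at or above 50; inconclusive = only one of the two criteria met; inactive = mean below 50 and not all replicates reaching 50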;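 note: 0% = plate neutral controls and 100% = maraviroc near 300 nM; one replicate is shown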
eIF4H inh retest = also measured in eIF4H inh; calls as there; inhibition, %; compound at 20 µM; confirmation average;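 mean of two retest wells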
PABP FP inh retest = second read-out of PABP FP inh, no call of its own (marks repeat the call); inhibition, %; compound at 20 µM; confirmation repeats;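 mean of two retest wells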
MT1-MMP act inh RFP = recorded beside MT1-MMP act inh, whose call it bears; RFP signal change, %; measured here: RFP expression control read;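 0 = vehicle wells; hits needed this value within 50% of zero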
Numbers without * were called inactive; i = inactive; ? = inconclusive; · = not tested or not shown. Random draw from the library (roughly 3% active in at least one column).

SMILES	PABP FP inh	CSC inhib	MT1-MMP act inh	MT1-MMP act inh RFP	eIF4H inh	Rce1 inhib	UUG fidelity	Env fusion inh	others
COc1ccc(C(=O)CSc2nc3nc(C)cc(C)n3n2)cc1OC	12	-4	2	2	-3	i	-7	·
CCc1c(C)nc(SCC(=O)N2CCN(c3ccccc3)CC2)[nH]c1=O	4	5	1	1	-2	·	11	1
Cc1cccc(N2CCN(C(=O)c3cc(C)oc3C)CC2C)c1 (configuration not stated)	-6	·	-9	1	-2	i	·	·
COc1ccc(NC(=O)N2CCCC2)cc1OC	3	3	3	2	8	i	-29	-62
Cc1onc(-c2ccccc2)c1C(=O)Nc1cccc(OC(C)C)c1	4	-8	-4	-3	4	i	-3	-19
Cc1nc(N2CCN(C(=O)c3ccco3)CC2)c2c3c(sc2n1)CCC3	3	-7	-2	-9	-6	i	3	·
Cc1cc(Cl)ccc1N=C1N=C(N)c2ccccc21	10	-19	-5	-6	-6	i	·	-10
O=C(c1cncc(Br)c1)N1CCN(c2ccc(N3CCOCC3)nn2)CC1	-2	-13	-3	4	-13	i	-46	6
Cn1c(-c2nonc2N)nc2ccccc21	7	1	-4	-1	11	i	1	-68
Cc1cc(C)c2c(N)c(C(=O)NN3CC(=O)N(c4ccccc4)CC3=O)sc2n1	-3	-12	-1	0	4	i	·	5
CCOc1ccc(C(C(=O)NC2CCCCC2)N(CCOC)C(=O)c2snc(C(N)=O)c2N)cc1 (configuration not stated)	11	1	4	-1	-12	i	-4	8
COc1ccc([C@H]2CC(=O)C=C(c3ccc4c5c(cccc35)CC4)C2)cc1	·	16	·	·	·	·	-20	27
CCOC(=O)C1CCN(CC(=O)Nc2ccc(OC)c(Cl)c2)CC1	74	-5	3	1	-9	i	-16	9	eIF4H inh retest=-4;PABP FP inh retest=-7
O=C(Nc1cccc(-c2cccc(Cl)c2)c1)C1CCN(CC2CCOC2)CC1 (configuration not stated)	-3	9	5	5	-13	i	-3	-7
COc1cc(C(=O)Nc2cccc(NC(=O)c3ccccc3)c2)cc(OC)c1OC	-1	0	9	2	-6	i	-4	5
Cc1ccc2[nH]c(C(=O)O)c(NC(=O)c3ccccc3[N+](=O)[O-])c2c1	9	-3	-4	-1	1	i	·	-1
COCCCN1C(=O)C(=O)/C(=C(/O)c2ccc(OCC(C)C)cc2)C1c1cccnc1 (configuration not stated)	5	-16	1	1	-1	i	·	·
O=S(=O)(c1ccc2c(c1)OCCO2)N1CCN(S(=O)(=O)c2ccco2)CC1	·	-8	2	-2	·	·	2	-15
CC(=O)N[C@@H](Cc1c[nH]c2ccccc12)C(=O)OCC(=O)Nc1ccc(Cl)c(S(=O)(=O)N(C)C)c1	-4	3	0	1	2	i	·	12
CN(C(=O)c1ccno1)c1nnc(-c2ccccn2)s1	·	-8	2	-3	·	i	-34	·
c1ccc(-c2csc(N3CCSCC3)n2)cc1	0	0	0	0	5	i	·	-36
CCOc1cccc2cc(C(=O)N3CCc4ccccc43)c(=O)oc12	3	6	3	2	2	i	4	·
Nc1ccc2c(c1)Oc1ccccc1C=C2	13	110*	-6	0	82	i	·	3	eIF4H inh retest=-10;PABP FP inh retest=16
CC(=O)C1=C(C)Nc2ncnn2C1c1ccc(Cl)cc1 (configuration not stated)	-5	-10	0	7	-7	i	-9	-8
COC(=O)c1cc(CSc2ncnc3sccc23)oc1C	?	-11	-21	-3	?	i	-12	17
The list goes on.
SMILES	PABP FP inh	CSC inhib	MT1-MMP act inh	MT1-MMP act inh RFP	eIF4H inh	Rce1 inhib	UUG fidelity	Env fusion inh	others
Cc1ccc(C)c(NC(=S)Nc2ccc(S(=O)(=O)Nc3ncccn3)cc2)c1	-2	·	2	0	-7	i	·	-12
COc1ccc(-c2noc(C3CCCN(C(=O)c4ccccc4OC)C3)n2)cc1 (configuration not stated)	5	-5	-1	-22	-2	i	12	28
CCOC(=O)CNC(=O)Cn1c(C)cc2ccccc2c1=O	4	-23	2	3	-8	i	-6	·
COc1ccc(-c2cc(C(F)(F)F)n3nc(C(N)=O)cc3n2)cc1	·	·	-1	3	·	·	-15	10
CCN1CCCC1CNC(=O)Cn1nc(C)n2c(cc3cc(C)ccc32)c1=O (configuration not stated)	-5	0	2	3	-8	i	-6	-2
CC1(C)NC(=O)N(CC(=O)OCC(=O)NC(=O)c2ccccc2)C1=O	·	-14	-5	3	·	i	·	11
Nc1cccc(-c2nc3ccc(C(=O)c4ccccc4)cc3[nH]2)c1	2	74	8	-13	-1	i	-18	i
CN([C@@H](C(=O)OC(C)(C)C)c1ccccc1)S(=O)(=O)c1cccc(S(=O)(=O)N(C)[C@@H](C(=O)OC(C)(C)C)c2ccccc2)c1	4	-6	8	-7	-2	i	-16	15
COc1ccc(CN2CCNC(=O)C2CC(=O)N(C)CCC2CCOCC2)c(OC)c1 (configuration not stated)	2	7	-1	1	5	i	-2	-3
CCOC(=O)N1CCN(C(=O)c2ccc3c(=O)n(CCC4=CCCCC4)c(=S)[nH]c3c2)CC1	5	-15	0	-13	-3	·	0	·
C[C@@H](C(=O)NCC1CC1)[C@H]1C[C@]1(C)[C@H](NC(=O)OCc1ccccc1)c1ccccc1	-2	15	1	-1	9	i	-7	1
CC(=O)OCCNC(=O)c1cc2ccccc2oc1=O	-7	-10	-1	-2	-1	·	-16	·
O=C(CSc1ccccc1)Nc1ccncc1	-7	8	-1	-5	-10	i	-10	31
Cc1nc2c(s1)sc1ccccc12	-1	-12	-8	-2	-3	i	-21	-455
COc1ccc(C(=O)n2nc(C)cc2C)cc1OC	-1	-11	1	-3	-9	i	-14	12
Cc1ccc(C(=O)OC2CCCN(C)C2)cc1 (configuration not stated)	-2	3	0	3	-4	i	-5	16
C=CCOC(=O)C1=C(C)NC(=O)NC1c1ccc2c(c1)OCO2 (configuration not stated)	0	-24	1	1	-18	i	-19	13
COc1ccc(CC(=O)N2CCc3cc(OC)c(OC)cc3C2O)cc1OC (configuration not stated)	9	-9	-1	-1	-4	i	-7	9
Cc1[nH]c2ccccc2c1C(=O)C(C)OC(=O)c1ccc(Cl)nc1 (configuration not stated)	·	·	2	2	·	i	·	-15
CC(=O)c1ccc(N=Nc2ccc(N)cc2)cc1	5	15	11	0	4	i	0	-64
CCOCCOC(=O)C1=C(C)NC2=C(C(=O)CC(c3cccs3)C2)C1c1ccsc1 (configuration not stated)	15	1	-2	-6	6	i	-4	·
CCOC(=O)C1=CCN(S(=O)(=O)c2ccccc2C)C1c1cccc(Br)c1 (configuration not stated)	·	·	3	0	·	·	8	3
COc1ccc(Cn2c(C)c(C)c(C#N)c2NC(=O)Nc2cccc(Cl)c2)cc1	-7	-10	-19	-1	7	i	27	·
Cc1cc(C)c(C)c(S(=O)(=O)N2CCC(C(=O)Nc3ccc(S(=O)(=O)N4CCOCC4)cc3)CC2)c1C	41	·	-1	-16	-14	i	-20	57*
CC1CN(c2ccccn2)C(C)CN1C(=S)Nc1ccccc1 (configuration not stated)	·	·	1	2	·	·	-2	-17

Ordered by length of the SMILES (largest number first): part of the list above
SMILES	PABP FP inh	CSC inhib	MT1-MMP act inh	MT1-MMP act inh RFP	eIF4H inh	Rce1 inhib	UUG fidelity	Env fusion inh	others
CCOC(=O)C1=CCN(S(=O)(=O)c2ccccc2C)C1c1cccc(Br)c1 (configuration not stated)	·	·	3	0	·	·	8	3
CC1CN(c2ccccn2)C(C)CN1C(=S)Nc1ccccc1 (configuration not stated)	·	·	1	2	·	·	-2	-17
COc1ccc(C(=O)n2nc(C)cc2C)cc1OC	-1	-11	1	-3	-9	i	-14	12

Later entries:
SMILES	PABP FP inh	CSC inhib	MT1-MMP act inh	MT1-MMP act inh RFP	eIF4H inh	Rce1 inhib	UUG fidelity	Env fusion inh	others
CSc1ccccc1-c1nnc(-c2ccc(C)cc2)o1	-8	-12	1	3	1	i	·	·
CCOC(=O)C(C)NC(=O)Cn1ncc2c(=O)oc3ccc(C)cc3c21 (configuration not stated)	-9	3	1	4	-5	i	4	-16
CC(=O)c1cccc(NC(=O)C(C)N(C)CC(=O)Nc2ccc(Cl)cc2)c1 (configuration not stated)	-1	-11	3	0	9	i	-21	3
CN(C)C(=O)c1cn(-c2ccccc2)nc1-c1cccc([N+](=O)[O-])c1	0	0	6	-1	-5	i	-6	?
CC(C)CC(=O)NS(=O)(=O)c1ccc(N)cc1	-16	·	4	2	2	·	-6	·
O=C(Nc1ccc(F)cc1)c1cncs1	-4	-9	-3	2	-14	i	-24	6
COc1ccc(NC(=O)Cn2nc(C(F)(F)F)c3c2CCCC3)cc1OC	-1	4	-6	-11	-8	i	·	24
COc1cc(/C=N/NC(=O)CCN2CCN(Cc3ccccc3)CC2)cc(OC)c1OC	28	0	3	2	-7	i	-15	-7
CCN1c2cccc3cccc(c23)S1(=O)=O	15	-19	1	5	24	i	0	-61
Cn1c(=O)c(=O)n(C)c2cc(S(=O)(=O)N3CC(=O)N(CCc4ccccc4)C(=O)C3)ccc21	3	-6	6	14	-3	i	-16	18
CC1CC(C)CN(CCCNC(=O)C2CCCN(c3ncnc4c3nc3n4CCCCC3)C2)C1 (configuration not stated)	11	-17	4	6	11	i	-9	-52
CC(=O)Cc1nsc(NC(=O)c2cc(-c3ccccc3Cl)oc2C)n1	-2	-3	-9	-12	-6	i	-21	9
COC(=O)CNC(=O)C1CCN(C(=O)OCc2ccccc2)CC1	-7	-13	0	7	-12	i	-16	·
Cc1ccc2nsnc2c1NC(=O)c1ccc([N+](=O)[O-])cc1	-6	-2	0	-16	0	i	·	23
O=C(NCCc1ccccc1)C1CCN(C(=O)NCc2ccccc2)CC1	4	-6	4	3	2	i	·	17
COc1ccc(S(=O)(=O)N=N/C=C2\C=CC=CN2O)cc1OC	·	·	3	5	·	·	-13	-23
C#CCn1c(O)c(N=NC(=O)C(O)c2ccccc2)c2ccccc21 (configuration not stated)	-9	-16	-2	4	-3	i	-13	-12
O=[N+]([O-])c1ccc(N/N=C/c2ccc(OCc3cccc4ccccc34)cc2)nc1	-2	-3	-91	-4	64	i	·	-14	eIF4H inh retest=33;PABP FP inh retest=32
O=C(c1ccccc1F)N1CCN(C(=O)C2CC2)CC1	6	62	-2	4	-5	·	-11	5
O=C(O)COc1c(-c2ccco2)oc2ccccc2c1=O	4	-4	0	2	2	i	·	-19
CCc1nc2c(OCc3c(C)noc3C)cccn2c1N(C=O)Cc1ccc(OC)cc1	·	·	-3	2	·	·	-4	-1
C/C(Cn1nnc([N+](=O)[O-])n1)=N\NC(=O)c1ccncc1	12	-18	-4	-7	-4	i	·	-32
Cc1[nH]c2ccccc2c1C(=O)COC(=O)C(C)C	3	-1	-1	5	-8	i	1	0
O=C(CN1CCCc2ccccc21)N/N=C/c1ccccc1	-17	-9	-7	2	3	i	·	-8
COc1cccc(S(=O)(=O)Nc2cccc(C(=O)N3CCCC3)c2)c1	-6	-16	-2	1	-1	i	-4	-9
O=C(O)CCc1ccc(-c2ccccc2)n1-c1cccc(O)c1	18	-5	-9	2	12	i	-7	·
CCOC(=O)c1ccc(-n2c(CCC(=O)O)ccc2-c2ccc(F)cc2)cc1	-11	22	-1	0	-12	i	-6	1
O=[N+]([O-])c1cc(Cl)ccc1-c1nc(-c2ccccc2)no1	?	0	-3	-3	-7	i	·	-160
COCCNC(=O)CN(C(=O)CCC(=O)Nc1cc(C)on1)c1ccc(C)cc1C	0	-4	3	3	-10	i	-1	25
COc1cc2cc(CN(CCCN3CCOCC3)C(=O)Nc3ccc(F)cc3)c(=O)[nH]c2cc1OC	4	-5	4	8	-8	i	·	23
